Mtb hypoxia inh: reduces hypoxia-regulated biosensor signal in M. tuberculosis; M. tuberculosis hypoxia-regulated fluorescent reporter, fluorescence; fluorescence inhibition, % (test concentration not listed); hit rate 0.1% among 300,000; AID 1159583;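 active = 35 to 45% if threefold the growth effect, above 45% if 1.5-fold the growth effect; inactive = the rest, general growth blockers included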;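 note: wells of about 50 µL received 100 nL stock; 0% = vehicle wells and 100% = reference inhibitor wells; whole bacteria with a GFP reporter of the hypoxia response; strong numbers were not always called active; many hits fall short of the cut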
RN4220 kill: S. aureus RN4220 growth inhibition | hit rate 0.33% among 330,000 | AID 1259311 | inhibition, % (test concentration not listed) | OD600, 16 h;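 active = z-score of -3 or lower and OD600 up to 0.18 on both plates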;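 note: plate controls were untreated cells for no effect and reference antibiotic for full effect; stock transfer was 100 nL into about 80 µL; one replicate is shown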
BJeLR lethal: kills HRASV12-expressing BJeLR cells; hit rate 0.17% among 300,000; inhibition, % (concentration not given with the values); BJeLR (HRASV12) viability, CellTiter-Glo ATP luminescence, 48 h; reference of the scale not given here;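 active = replicate mean above 50%; inconclusive = above 50% but judged a plate artefact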;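 note: 50 nL library stock added to about 25 µL; numbers are from one replicate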
Sa ugtP lethal: growth inhibition of S. aureus ugtP deletion strain; S. aureus RN4220 ugtP deletion, OD600 growth, 16 h; some inactives read as strong as hits; growth inhibition, % (no concentration beside the values); hit rate 0.54% among 330,000;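 active = z-score under -3 and OD600 up to 0.15 on both plates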;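 note: plate controls were untreated wells for no effect and antibiotic for full effect; wells of about 80 µL received 100 nL stock; the first replicate is given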
PrP 5UTR inh: inhibition of PrP 5' UTR reporter expression; cell-based PrP 5' UTR mRNA reporter, plate reader; inhibition, % (no concentration beside the values); hit rate 0.35% among 340,000; AID 488862;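 active = every replicate at 50% or more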;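 note: 0 = median of the neutral control wells; tested in H4 reporter cells; numbers are from one replicate; inactives centre near -14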
Autofluor counter: compound fluorescence in toxin protease inhibitor counterscreen; compound autofluorescence counterscreen, microsphere flow cytometry; stronger effect = higher value; fluorescence intensity (no concentration beside the values); hit rate 3.1% among 360,000; AID 624483;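 active = at least 3 SD above the mean of all compounds, about 16000 in these data; inconclusive = too few beads counted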;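 note: 100 nL of 1 mM stock went into each well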
Mtb hypoxia inh growth: also measured in Mtb hypoxia inh; calls as there; growth inhibition, %; measured here: M. tuberculosis growth (absorbance);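 0% = vehicle and 100% = reference antibiotic; read after six days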
An asterisk follows results filed as active; ? = inconclusive; nt = not tested or not shown.

Structure,BJeLR lethal,Autofluor counter,PrP 5UTR inh,Mtb hypoxia inh,RN4220 kill,Mtb hypoxia inh growth,Sa ugtP lethal
CC(CNC(=O)COc1ccccc1)OC(=O)Nc1cccc(Cl)c1 (stereo unspecified),-5,2743,-43,11,2.4,6,10
CCOc1cc(/C=C2/NC(=O)N(CC(=O)OC)C2=O)ccc1OC,5,3905,-38,-9,-0.1,-3,0
O=C(O)CCS(=O)(=O)Cc1ccccc1Cl,3,11372,-18,3,5.0,10,-3
O=C(O)CSc1nnc(Cc2cccc3ccccc23)n1-c1cc(C(F)(F)F)cc(C(F)(F)F)c1,14,4530,-6,10,11,-1,-4
CC(C)c1nnc(-c2ccc(Cl)cc2)c(N(C)C)n1,1,10040,-17,10,1.4,0,4
O=C(ON=C1CCS(=O)(=O)c2sccc21)c1ccc(F)cc1,nt,nt,nt,5,2.6,2,2
Cc1cc(OCC(=O)N2CCOCC2)cc2oc(=O)c3ccccc3c12,4,2184,-12,nt,-1.2,nt,12
S=C1NCCc2ccccc2C1c1ccccc1 (stereo unspecified),-6,4189,-11,nt,-0.8,nt,-4
COc1cccc(CN(C)Cc2c(O)ccc3ccccc23)c1,-8,3280,-5,1,-0.4,-6,-2
Cc1csc2c(=O)sc(NC(=O)c3ccc(F)cc3)nc12,6,5595,nt,-4,2.6,1,-2
C=C(C)CSc1nnc(-c2ccc(OC)cc2)n1N,-5,19732*,-19,nt,nt,nt,nt
O=C(CSc1cn[nH]n1)Nc1cccc(C(F)(F)F)c1,-6,3169,-27,15,-1.3,7,1
CCCCOc1ccc(CN(CCO)CCO)cc1[N+](=O)[O-],1,2083,-14,3,1.5,8,2
Cc1cc(C)nc(Sc2ncnc3c2oc2ccccc23)n1,-2,21474*,-4,4,1.2,12,-5
COc1ccc2c(c1)c(C(=O)CN1CCN(Cc3ccccc3)CC1)c(C)n2C,5,3838,-23,11,6.4,-4,10
O=C1NC2(CCCC2)C(=O)N1CCS(=O)(=O)Oc1ccccc1,2,3204,-8,1,-3.8,1,-9
COCCCn1c(C)nnc1-c1cnn(-c2ccccc2)c1N,-25,4032,-28,12,10.0,9,5
Cc1cc(C(=O)CSc2nc3ccccc3c(=O)n2C)c(C)n1Cc1ccc2c(c1)OCO2,9,4375,-20,12,6.1,5,-21
CC(=O)NS(=O)(=O)c1ccc(NC(=O)CCC2CCCC2)cc1,5,3918,-1,nt,-0.3,nt,5
CN(C)c1cc[n+](CC(=O)c2ccc(Br)cc2)cc1,14,3721,-5,13,1.4,7,12
COc1ccc(S(=O)(=O)N/N=C\c2ccccc2F)cc1,0,3916,-3,nt,nt,nt,nt
CCN(CC(=O)Nc1c(F)cccc1F)C(=O)c1ccc(=O)n(Cc2ccccc2)n1,-2,6044,-3,-3,-6.4,0,0
Cc1nc(N)nc(COc2ccccc2)n1,-7,4265,-50,20,3.4,-2,12
O=C(Nc1ccccc1O)c1c(O)c2c([nH]c1=O)CCCC2,-2,3522,-79,nt,nt,nt,nt
COc1cccc(NC(=O)CN(C)CC(=O)c2c(N)n(Cc3ccccc3)c(=O)n(C)c2=O)c1,nt,?,nt,-2,0.1,2,0
O=C(COC(=O)C=Cc1cccc(C(F)(F)F)c1)NC(c1ccccc1)c1ccccc1,nt,nt,nt,2,21,5,0
CON=Cc1ccc(Oc2ccc(C)cc2)c([N+](=O)[O-])c1,nt,nt,nt,6,0.7,20,0
Cc1cc[n+](Cc2ccc([N+](=O)[O-])cc2)cc1,2,5443,-20,0,3.1,-7,1
Cc1ccc(CCNC(=O)CN2C(=O)COc3ccccc32)cc1,2,5209,-18,15,1.4,15,2
CCCNC(=O)NC1CCCc2ccccc21 (stereo unspecified),-3,4694,-12,16,3.7,10,-1
CCOc1ccc(N2C(=O)Nc3ccccc3C2(O)C(=O)N2CCN(c3ccccn3)CC2)cc1 (stereo unspecified),11,4503,-25,-12,-5.7,7,-2
N#Cc1cc2c(nc1SCc1cccnc1)CCCCC2,1,7800,2,8,4.7,0,14
CCOC(=O)c1csc(NN=C2CCc3ccccc32)n1,nt,nt,nt,-10,-8.8,4,-15
Cc1oc(S(=O)(=O)N2CCOCC2)cc1C(=O)Nc1ccc(Cl)cc1,2,4585,-12,11,1.0,2,2
O=C(COc1ccc(Cl)cc1Cl)N1CCCCCC1,7,8391,-21,7,-1.1,5,-5
O=C(c1ccc(NS(=O)(=O)c2ccc(F)cc2)cc1)N1CCCCCC1,-5,?,-20,4,-0.3,-11,9
Cc1cccc(C)c1NS(=O)(=O)c1ccc(OCCNS(C)(=O)=O)cc1,5,4775,-31,-4,8.4,5,-8
Cc1ccc(NC(=O)N2CCCC2c2cccs2)cc1 (stereo unspecified),2,4529,0,15,2.7,8,0
CN1CCN(C(=O)c2ccc3c(c2)NC(=O)/C(=C/c2ccccc2)S3)CC1,7,5388,-8,6,2.8,6,1
O=C1C2C3c4ccccc4C(c4ccccc43)C2C(=O)N1CN1CCOCC1 (stereo unspecified),19,10634,-8,9,0.1,5,-6
O=C(Nc1nnc(-c2cc(Cl)ccc2Cl)o1)c1ccco1,-2,5071,-12,2,9.1,-3,-5
COc1ccc(CCNC(=O)c2ccc(CN3CCC(Cc4ccccc4)CC3)cc2)cc1,11,1984,6,-1,1.6,9,10
O=C1C2C3C=CC(C3)C2C(=O)N1c1ncn[nH]1 (stereo unspecified),-12,11641,-17,5,2.3,0,6
COc1cc(/C=N/NC(=O)CCC(=O)Nc2ccc(F)cc2)ccc1O,-4,3648,-12,nt,nt,nt,nt
OC(c1ccccc1)C1CN(Cc2ccccc2)CCC1(O)c1ccccc1 (stereo unspecified),0,11193,-2,-4,-3.6,-7,-4
Cc1ccc(C(=O)NC2CCCCCCC2)c(Cl)c1,-19,4031,26,10,16,12,4
O=C1CCCCN1CCCC(=O)N1CCCC(Nc2ccccc2)C1 (stereo unspecified),4,4355,-1,2,-3.2,14,-3
CN(CC(=O)NCCc1ccccc1)S(=O)(=O)c1ccc(Br)cc1,3,10081,-20,8,3.9,6,2
O=C(Nc1ncc(S(=O)(=O)c2ccc([N+](=O)[O-])cc2)s1)c1cccc2ccccc12,-3,2698,-4,nt,nt,nt,nt
COc1ccc(-c2cc3cccc(OC)c3oc2=O)cc1,16,2910,-2,-3,6.4,2,4

Remaining list, next part
Structure,BJeLR lethal,Autofluor counter,PrP 5UTR inh,Mtb hypoxia inh,RN4220 kill,Mtb hypoxia inh growth,Sa ugtP lethal
C=CCOC(=O)C1=C(C)NC(SCC(=O)Nc2nccs2)=C(C#N)C1c1cccs1 (stereo unspecified),-3,2743,-25,nt,-5.3,nt,0
Cc1cccc(-c2oc3ccccc3c2C#CCCO)c1,-8,3569,1,nt,nt,nt,nt
COc1cc2c(cc1OC)CN(c1nc(CN3CCOCC3)nc3sc4c(c13)CCC(C)C4)CC2 (stereo unspecified),-1,3622,1,0,-6.3,9,-19
COc1ccc(S(=O)(=O)NCC2CCCO2)cc1NC(=O)c1ccccc1 (stereo unspecified),6,5914,-10,-4,1.0,-1,1
O=C(Nc1ccc(N2CCOCC2)cc1)c1ccc(S(=O)(=O)N2CCCCC2)cc1,-11,10575,-17,-1,3.0,3,1
CCc1noc(C)c1C(=O)NCCc1ccc(OC)c(OC)c1,3,24111*,-1,1,2.1,2,4
O=C(NCCc1ccc(Cl)cc1)C1CCN(C(=O)c2ccc(F)cc2)CC1,-7,4418,6,-10,5.6,-12,3
CCOC(=O)C(NC(=O)CCl)(Nc1sc(C)c(CC)c1C#N)C(F)(F)F (stereo unspecified),-2,2153,-9,7,17,5,-3
Cc1c(C(=O)c2ccc(Cl)c([N+](=O)[O-])c2)c2ccccn2c1CCC#N,-2,1950,5,10,5.5,7,5
COc1ccc(C2C=CCN(Cc3ccncc3)CC(=O)N2Cc2ccc(F)cc2)cc1 (stereo unspecified),nt,nt,nt,19,9.3,9,3

Record cards (already shown). Order of values: BJeLR lethal | Autofluor counter | PrP 5UTR inh | Mtb hypoxia inh | RN4220 kill | Mtb hypoxia inh growth | Sa ugtP lethal
COc1ccc(C2C=CCN(Cc3ccncc3)CC(=O)N2Cc2ccc(F)cc2)cc1 (stereo unspecified) is listed as nt | nt | nt | 19 | 9.3 | 9 | 3
COc1cc2c(cc1OC)CN(c1nc(CN3CCOCC3)nc3sc4c(c13)CCC(C)C4)CC2 (stereo unspecified) is listed as -1 | 3622 | 1 | 0 | -6.3 | 9 | -19

Other results
Structure,BJeLR lethal,Autofluor counter,PrP 5UTR inh,Mtb hypoxia inh,RN4220 kill,Mtb hypoxia inh growth,Sa ugtP lethal
CC1(c2ccc(Cl)cc2Cl)NC(=O)N(CC(=O)NC2CCCCC2)C1=O (stereo unspecified),nt,5409,-23,2,-0.3,2,-1
CCCCNC(=O)Cn1cnc2sc(C(=O)OCC)c(C)c2c1=O,7,3683,-25,nt,0.0,nt,5
CCc1noc(C)c1C(=O)N1CCC(CCC(=O)Nc2cccc(OC)c2)CC1,-2,5600,-3,6,-0.3,13,5
CC(=O)c1c(C(C)=O)c(C)n(-c2nc(-c3ccc(Br)cc3)c(C)s2)c1C,-1,17033*,-37,11,-0.9,7,-1
CCOc1ccc(C(=O)NC(C(=O)NCC(c2cccs2)N(C)C)C(C)C)cc1 (stereo unspecified),nt,3109,-9,23,4.6,48,9
COc1ccc(C2c3ccc(O)cc3Oc3ncn(Cc4ccccc4)c(=N)c32)cc1OC (stereo unspecified),0,4891,-5,6,6.5,12,3
COC(=O)c1cc(-c2ccc3c(c2)OCO3)nc2ccccc12,0,3011,-7,1,12,15,-7
CN(C)CCOC(=O)c1sc2ccccc2c1Cl,4,4255,-27,6,4.9,11,14
O=S(=O)(Oc1ccccc1-c1ccccc1)c1ccccc1,nt,2957,-17,4,8.3,0,3
O=C(Oc1ccc(N(Cc2cccs2)C2=NS(=O)(=O)c3ccccc32)cc1)c1ccc(Cl)cc1,1,4172,3,nt,-4.8,nt,-3
COc1cc(CCC(=O)OCC(=O)Nc2ccc(C)cc2Br)cc(OC)c1OC,4,3627,-9,0,4.2,1,-1
Cc1cc([N+](=O)[O-])ccc1NC(=O)C(C)NC1CCCCC1 (stereo unspecified),-15,4332,-2,-1,0.9,0,0
O=C(NCCc1ccccc1)c1ccc2c(=O)[nH]c3c(C(=O)NCC4CCCO4)sc(=S)n3c2c1 (stereo unspecified),-21,5981,0,nt,nt,nt,nt
Cc1ccc(CNC(=O)CSc2ccsc2[N+](=O)[O-])cc1,2,3349,-68,nt,nt,nt,nt
CC(=O)c1cccc(NC(=O)CSc2n[nH]c(=O)n2C2CC2)c1,nt,2874,-8,-5,2.9,-5,-1
O=S(=O)(NC(=S)c1ccccc1)c1ccc(F)cc1,-10,3590,-13,11,3.7,8,8
Cn1cccc1C(=O)NC(=O)COC(=O)CNC(=O)c1ccc(Cl)cc1Cl,5,4119,-18,-2,3.2,7,9
CC1CCCCC1NC(=O)CSc1nnc(-c2ccccc2)n1N (stereo unspecified),5,3590,-2,nt,3.7,nt,5
CCC(Oc1ccc(Br)cc1Cl)C(=O)Nc1nnc(C2CC2)s1 (stereo unspecified),-6,6142,-5,1,-1.5,4,-13
Cc1nn(CC(=O)c2cccc(Cl)c2)c(C)c1[N+](=O)[O-],-2,4312,-26,-2,-0.7,6,-5
COc1cc(CNCc2ccccn2)ccc1OCc1ccc(Cl)cc1Cl,9,2229,15,10,24,12,-2
COc1ccc([N+](=O)[O-])cc1NC(=O)CSCc1ccccc1C,5,2027,-45,6,2.3,1,5
CC(Sc1ccc2ccccc2c1)C(=O)NC(N)=O (stereo unspecified),-4,3358,-1,0,6.6,3,21
CN1c2ccccc2Oc2nnc(Cl)cc21,1,2644,-20,11,1.6,17,2
COc1ccccc1Nc1cc(C)nc2c(C)ccc([N+](=O)[O-])c12,-11,1973,-2,-4,0.0,-3,-7
CCOC(=O)c1ccc(NC(=O)c2ccc(NS(C)(=O)=O)cc2)cc1,9,6597,-32,4,0.4,4,-3
CC(CC12CC3CC(CC(C3)C1)C2)NCc1ccccc1O (stereo unspecified),4,4242,-36,6,3.6,20,2
